quorum sensing – Vibrio cholerae quorum sensing activators, luminescence (AID 686977); V. cholerae quorum sensing reporter, luminescence, 6 h; higher luminescence means a stronger effect; most inactives read 0; one-dose luminescence at 50 µM unless noted; EC50 in µM for titrated hits; 9,400 tested, under 10 active;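 active means light above mean plus 3 SD and confirmed in a dose series; inconclusive means above that limit without a clear retest; inactive means below it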;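 further: raw light counts without normalisation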
* hit, by the source's call; ? = inconclusive; [ ] = remark or other dose.

structure | quorum sensing
CC(=O)Nc1ccc(NC(=S)Nc2ccccc2)cc1 | 0
CC(CN(C)Cc1ccccc1)OC(=O)C1COc2ccccc2O1 (configuration not stated) | 280
COCc1nc(-c2ccc(-c3ccc(OC)cc3)nc2OC)no1 | 0
CCN(CC)S(=O)(=O)c1cccc(-c2nnc(SC(C)C#N)n2Cc2ccccc2)c1 (configuration not stated) | 40
O=C(COc1ccccc1)Nc1nnc(-c2ccccc2)o1 | 40
CN(C1CCCCC1)S(=O)(=O)c1ccc2c(c1)c(=O)c(C(=O)NCCN1CCCC1)cn2C | 0
O=C(Oc1ccc2ccccc2c1)c1ccco1 | 0
O=C1NC2(CCCCCC2)N=C1c1ccc(F)cc1 | 0
Nc1nonc1C(=O)NCCNCc1c(OCc2ccccc2F)ccc2ccccc12 | 0
Cc1ccc(C(=O)CSc2cc(C)nc(SCC(=O)c3ccccc3)n2)cc1 | 0
CCOC(=O)N1CCN(c2c(NCCCN3CCCCCC3)c(=O)c2=O)CC1 | 0
N#CCCN1CCN(S(=O)(=O)c2ccc(S(=O)(=O)NC3CCCC3)cc2)CC1 | 40
CC(C)N(CCNC(=O)c1cn(C)c2ccc(S(=O)(=O)N(C)C)cc2c1=O)Cc1ccccc1 | 40
CN(C)CCN(Cc1cccs1)c1ccccn1 | 0[10 µg/mL]
Nc1ccc(S(=O)(=O)Nc2cnc3ccccc3n2)cc1 | 0[10 µg/mL]
CNCC(O)c1ccc(OC(=O)C(C)(C)C)c(OC(=O)C(C)(C)C)c1 (configuration not stated) | 40[10 µg/mL]
O=C(Oc1ccc(-n2cnnn2)cc1)c1ccco1 | 0
CS(=O)(=O)N(Cc1ccccc1)c1ccc(C(=O)NCc2cccnc2)cc1 | 40
O=C1CC(C(=O)Nc2ccccc2)C2(CCCCC2)O1 (configuration not stated) | 40
COC(=O)C(CC(=O)c1ccc(Cl)cc1)c1ccc(C)cc1 (configuration not stated) | 0
CCCCn1c(=O)c(C(=O)Nc2ccccc2S(N)(=O)=O)c(O)c2ccccc21 | 0
O=C(Cn1nc(Cc2cccnc2)c2ccccc2c1=O)N1CCN(C(=O)c2ccco2)CC1 | 0
O=C(CSCC(=O)N1CCOCC1)Nc1nc(-c2ccc3c(c2)OCO3)cs1 | 0
CSc1ccc(-c2nnn(Cc3ccccn3)n2)cc1 | 40
O=C(NCCC1=CCCCC1)C1CCCN(S(=O)(=O)c2cccc3cccnc23)C1 (configuration not stated) | 0

structure | quorum sensing
CC1=CC(C)(C)N(C(=O)CSc2nnc(C)s2)c2ccc(C)cc21 | 0
CC(C)(C)NC[C@@H](O)COc1cccc2c1CCCC2=O | 40[10 µg/mL]
O=C(CN1CCOCC1)Nc1ncc(Br)cc1Br | 40
COc1ccc(Nc2cc(C)nc3nc(C)nn23)cc1Cl | ?
c1ccc(Cn2nnnc2CN2CCN(Cc3ccc4c(c3)OCO4)CC2)cc1 | 40
COc1ccc(Cl)cc1N1C(=O)C2CCCN2C1c1ccc(F)cc1 (configuration not stated) | 0
CCN1C[C@]2(C)CC[C@H](OC)[C@@]34C1[C@]1(OCO[C@@]15C[C@H](OC)[C@H]1C[C@]3(O)[C@@H]5[C@H]1OC)[C@@H](OC(C)=O)[C@H]24 | 40[10 µg/mL]
Nc1ccn([C@H]2CC[C@@H](CO)O2)c(=O)n1 | 0[10 µg/mL]
CCS(=O)(=O)NC(C)C(c1cccs1)N1CCN(c2ccc(F)cc2)CC1 (configuration not stated) | 0
CNC(=O)c1nnc(Cc2ccc(Cl)cc2)o1 | 0
O=C(CSc1nnc(-c2ccccc2)o1)Oc1ccc(Br)cc1 | 0
CC(C)c1nc(SCC(=O)c2ccccc2)c2c(=O)n(C)c(=O)n(C)c2n1 | ?
Cn1cnnc1SC(C(=O)Nc1cc(Cl)cc(Cl)c1)c1ccccc1 (configuration not stated) | 0
CCOC(=O)c1sc2nc(NC(=O)C3CC3)sc2c1C | 0
CCc1cccc(OCC(=O)Nc2ccc(S(=O)(=O)Nc3onc(C)c3C)cc2)c1 | 0
CC1=C(C)CC(C(=O)NCCc2ccccc2)C(C(=O)O)C1 (configuration not stated) | 0
CCc1ccc(NC2=CC(=O)CC(c3ccco3)C2)cc1 (configuration not stated) | 0
CC(=O)Nc1c(-c2ccccc2)nc2ncccn12 | 0
CC(CCc1ccccc1)NC(=O)C1CCN(C(=O)c2sccc2-n2cccc2)CC1 (configuration not stated) | 40
CCC[C@@H]1C[C@@H](C(=O)N[C@@H](C2O[C@H](SC)[C@H](O)[C@@H](O)[C@H]2O)[C@H](C)Cl)N(C)C1 (some centres not stated) | 0[10 µg/mL]
Cc1ccc(N(CC(=O)Nc2cc(C)cc(C)c2)S(=O)(=O)c2cccc3nonc23)cc1 | 40
Cn1c(C(=O)NCCCN2CCCCC2)cc2sccc21 | 320
O=S(=O)(N1CCCCC1)N1CCN(c2ccccc2F)CC1 | 80
C=CCNC(=S)/N=c1\sccn1C | 40
CN1CCCCC1CCN1c2ccccc2Sc2ccc(S(C)=O)cc21 (configuration not stated) | 40[10 µg/mL]

Entries from the list above containing a cyano group, in the order listed:
structure | quorum sensing
CCN(CC)S(=O)(=O)c1cccc(-c2nnc(SC(C)C#N)n2Cc2ccccc2)c1 (configuration not stated) | 40
N#CCCN1CCN(S(=O)(=O)c2ccc(S(=O)(=O)NC3CCCC3)cc2)CC1 | 40

The listing continues.
structure | quorum sensing
Cc1ccc(-n2ncc3c(N4CCC5(CC4)OCCO5)ncnc32)c(C)c1 | ?
O=C(COc1ccccc1Cl)NNC(=O)C1CCCO1 (configuration not stated) | 40
CCCCCCC1CC(CSC(=N)N)OC1=O (configuration not stated) | 0
Fc1ccc(CNc2nc3ccccc3n3cnnc23)cc1 | 0
CCOC(=O)N1CCC(N2CC34C=CC(O3)C(C(=O)Nc3ccc(C(C)C)cc3)C4C2=O)CC1 (configuration not stated) | 120
CCC1(C)OC(=O)N2CCc3c(C)[nH]c4c(C)ccc(c34)C21C (configuration not stated) | 0
OCc1cn(-c2ccccc2)nc1-c1ccc(-c2nn(-c3ccccc3)cc2CO)cc1 | 0
N/C(=N\OC(=O)c1ccccc1[N+](=O)[O-])c1cccnc1 | 0
CCc1nnc(NC(=O)[C@@H](NC(=O)c2cccc(S(=O)(=O)N(CC)CC)c2)C(C)C)s1 | 40
C1CCC(n2nnnc2CN2CCCC2)CC1 | 40
Cc1oc(/N=C/c2ccc(Cl)cc2Cl)c(C#N)c1C | ?
COc1cc(NC(=O)C2CCCN2S(=O)(=O)c2cccc3cccnc23)cc(OC)c1OC (configuration not stated) | 0
CCCCn1ccnc1C(=O)c1cccc(S(=O)(=O)N2c3ccccc3CC2C)c1 (configuration not stated) | 0
CCOC(=O)N1CCN(c2c(NC3CCN(Cc4ccccc4)CC3)c(=O)c2=O)CC1 | 0
Cc1noc(/C=C/N(C)C)c1S(=O)(=O)N1CCCC(C(=O)NC2CCCCC2C)C1 (configuration not stated) | 0
COc1ccccc1N1CCN(C2CCCC(C)C2)CC1 (configuration not stated) | 0
NC(N)=Nc1nc(CSCC/C(N)=N/S(N)(=O)=O)cs1 | 0[10 µg/mL]
Nn1cnc2sc3c(c2c1=O)CCC3 | 0
O=C1C=CC(=O)c2c1ccc1c2ccc2ccccc21 | 0[10 µg/mL]
O=C(C1=C(O)C(=O)N(CCN2CCOCC2)C1c1ccncc1)c1ccco1 (configuration not stated) | 0
COc1ccc(C/C(O)=C(\C#N)c2nc3ccccc3[nH]2)cc1OC | 0
CNC(=O)NC(=O)CSc1ncc(C(F)(F)F)cc1Cl | 0
CCCCC(c1nnnn1CC1CCCO1)N1CCN(c2cc(Cl)ccc2C)CC1 (configuration not stated) | 40
C=CCSc1nc2ccccc2n1C(=O)/C=C/c1cc(OC)c(OC)c(OC)c1 | 0
N=c1nc(-c2ccccc2)ccn1O | 0

structure | quorum sensing
CN(C)CCCN1C(=O)c2oc3ccc(Cl)cc3c(=O)c2C1c1cccnc1 (configuration not stated) | 40
Cc1ccc(S(=O)(=O)N2CCN(C3CCC(c4ccccc4)CC3)CC2)cc1 (configuration not stated) | 0
O=C(/C=C/c1ccco1)NC(=S)Nc1ccccn1 | 40
CC(C)NC(=O)NC1C2CC3CC(C2)CC1C3 (configuration not stated) | 40
COc1ccccc1C(=O)Nc1ccc2oc(-c3ccc(F)cc3)nc2c1 | 0
CCOC(=O)c1c(CN2CCCCC2)n(C)c2ccc(OC)c(S(=O)(=O)c3ccccc3)c12 | 0
C=Cn1c(N2CCOCC2)nc2c1c(=O)[nH]c(=O)n2C | 40
CCOC(=O)C1=C(CC)NC2=C(C(=O)CCC2)C1c1ccc(OC)c(OC)c1 (configuration not stated) | 0
O=C(NCc1cccs1)C1CCCN1S(=O)(=O)c1ccccc1F (configuration not stated) | 0
N[C@@H](Cc1cc(I)c(Oc2cc(I)c(O)c(I)c2)c(I)c1)C(=O)O | 0[10 µg/mL]
CC1=NN(c2nc(C)cc(C)n2)C(=O)C1CCC(C)C (configuration not stated) | 0
Cc1c(NC(=O)CN2C(=O)c3cccc4cccc2c34)c(=O)n(-c2ccccc2)n1C | 240
COc1ccc(CONS(=O)(=O)c2ccc(NC(C)=O)cc2)cc1Cl | 40
CCN(CC)S(=O)(=O)c1ccc(NC(=O)CSc2cccc[n+]2[O-])cc1 | 0
COc1cccc(-n2c(Cc3cc(=O)[nH]c(=O)[nH]3)nnc2SCC(=O)NC2CCCC2)c1 | 0
O=C1CN(/N=C/c2ccc([N+](=O)[O-])o2)C(=O)N1 | 0[10 µg/mL]
CCCCSc1[nH]c(=O)c(C(=O)OCC)cc1C#N | 0
CCc1ccc2[nH]c(=O)c(CN(Cc3ccccc3OC)C(=O)Nc3ccccc3OC)cc2c1 | 0
COc1cc(OC)cc(C(=O)N2CCN=C2SCc2cccnc2)c1 | 0
CSC1=NCCN1C(=O)COc1ccccc1 | 0
N#CC1=C2SCN(c3ccccc3)CN2C(=O)CC1c1c(Cl)cccc1Cl (configuration not stated) | ?
O=C(c1ccncc1)N(Cc1cc2ccccc2[nH]c1=O)C1CCCCC1 | 0
O=S(=O)(N/N=C/c1ccc(Cl)cc1)c1ccc(Cc2ncc(C(F)(F)F)cc2Cl)s1 | 0
C[C@]12CC[C@@H]3c4ccc(O)cc4CC[C@H]3[C@@H]1CCC2=O | 0[10 µg/mL]
COc1ccc(NC(=O)CN(c2cc(C)cc(C)c2)S(=O)(=O)c2c(C)noc2C)cc1OC | 40

An excerpt from above in order of molecular weight, low to high.
structure | quorum sensing
C[C@]12CC[C@@H]3c4ccc(O)cc4CC[C@H]3[C@@H]1CCC2=O | 0[10 µg/mL]
CCN(CC)S(=O)(=O)c1ccc(NC(=O)CSc2cccc[n+]2[O-])cc1 | 0
CN(C)CCCN1C(=O)c2oc3ccc(Cl)cc3c(=O)c2C1c1cccnc1 (configuration not stated) | 40

Next part
structure | quorum sensing
COc1ccc(NC(=O)CSc2nnc(Cc3cccn3C)n2-c2ccc(F)cc2)cc1 | 40
O=C(Nc1nc2ccccc2s1)C1CCCN1S(=O)(=O)c1ccc(Cl)cc1 (configuration not stated) | 0
Nc1cc(Cl)c(N)cc1Cl | ?
Cc1ccc(C)c(N2CCN(CC3CC=CCC3)CC2)c1 (configuration not stated) | 280
CNC(=O)c1ccc2snnc2c1 | 0
O=C(Nc1ncn[nH]1)C(F)(F)C(F)F | 0
COCCOC(=O)C1=C(C)NC2=C(C(=O)CC(c3cccs3)C2)C1c1ccsc1 (configuration not stated) | 40
CCn1c(=O)c2cc(S(=O)(=O)NCCOc3ccccc3)ccc2n(CC)c1=O | 0
CC(=O)Oc1cc(C(C)C)c(OCCN(C)C)cc1C | 0[10 µg/mL]
O=C(CN1CCN(Cc2ccc(F)cc2)C1=O)NCc1cccs1 | 0
COc1ccccc1C(=O)N1CCNC(=O)C1CC(=O)Nc1cccc(C)c1 (configuration not stated) | 0
CCOc1ccc(-c2cc(C(=O)N3CCN(c4ccccn4)CC3)c3ccccc3n2)cc1 | 40
CCCCC1C(=O)N(c2ccccc2)N(c2ccc(O)cc2)C1=O (configuration not stated) | 40[10 µg/mL]
Clc1ccc(-c2nnc(-c3ccc(Br)o3)o2)c(Cl)c1 | 40
CCCCn1c(CNC(C)=O)nc2ccccc21 | 0
COc1cc(NC(=O)Cn2nnc(-c3ccccc3N)n2)cc(OC)c1 | 40
CCOC(=O)c1c(CN2CCCCC2)oc2ccc(OC)cc12 | 0
Cc1ccccc1NC(=O)c1ccccc1 | 40
CNC(=O)CN1C(=O)c2ccccc2S1(=O)=O | 40
CCN(CC)CC(O)COc1ccc2c(c1)OCO2 (configuration not stated) | 80
COCCN1Cc2cccc(C(=O)N3CCN(c4cc(C)ccc4C)CC3)c2C1=O | 0
O=C(O)CCCC(=O)Nc1nc(-c2ccc(F)cc2)cs1 | 0
CN(C)S(=O)(=O)c1cccn1-c1ncc(C(F)(F)F)cc1Cl | 0
CCOc1ccc(-n2c(Cc3cc(=O)[nH]c(=O)[nH]3)nnc2SCC(=O)OC)cc1 | 40
COc1ccc(-n2nnnc2-c2cccc(OC)c2)cc1 | 0
CSc1cccc(NS(=O)(=O)c2ccc3c(c2)oc(=O)n3C)c1 | 0
CN(C)c1ccc(-c2noc(-c3ccccc3O)n2)cc1 | 0
O=C(CSc1ccc2nnc(-c3cccnc3)n2n1)NCc1ccco1 | 40

4 of the compounds above, with each value named.
Compound: O=C1CN(/N=C/c2ccc([N+](=O)[O-])o2)C(=O)N1
- quorum sensing: 0[10 µg/mL]
Compound: O=C1C=CC(=O)c2c1ccc1c2ccc2ccccc21
- quorum sensing: 0[10 µg/mL]
Compound: CN(C)S(=O)(=O)c1cccn1-c1ncc(C(F)(F)F)cc1Cl
- quorum sensing: 0
Compound: COc1ccccc1C(=O)Nc1ccc2oc(-c3ccc(F)cc3)nc2c1
- quorum sensing: 0

The list is partial; count on the stated rates, not on these rows.
